Screening data from PubChem.
2A StopGo: FMDV 2A StopGo reporter, luciferase signal; human cells with a luciferase reporter of 2A StopGo recoding; control for the full effect not named in the record; Potency, µM (series often up to 57.9 µM), without a hit: at the top dose signal change, negative = less light; 410,000 compounds, 1.2% hits; AID 1159524; active = well fitted falling curve with a large enough effect; inconclusive = small, poorly fitted or top-dose-only effect; inactive = no such curve, though single readings can be large or run the other way; tested in HEK293T cells; also: % is scaled to controls: 0 for no effect and ±100 for the full control effect; nearly all actives have a fitted effect of over 45% in size; luciferase light after 4 h
NS1 inh: blocks influenza NS1 protein function. S. cerevisiae slowed by influenza A NS1, growth recovery by OD600. Potency, µM (doses to about 46.1 µM), for inactives: at the top dose activity, positive = more growth. 270,000 compounds, 0.4% hits. AID 2326; active means well fitted rising curve with a large enough effect; inconclusive means small, poorly fitted or top-dose-only effect; inactive means no such curve, though single readings can be large or run the other way; also: nearly all actives have a fitted effect of over 50% in size
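Growth recovery, yeast-based: influenza A NS1 expressed in S. cerevisiae causes slow growth, and suppressors are detected by OD600. The parent strain without NS1 is used as positive control.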
Marburg entry inh: blocks Marburg virus binding to or entry into cells | Marburg virus pseudotyped entry inhibition, cell reporter; control for the full effect not named in the record; about a third of the inactives were read at about 46 µM | Potency, µM (doses to about 37.8 µM), for the others: top-dose activity change, negative = inhibition, actives largely listed as inhibitors | 300,000 compounds, 1.8% hits | AID 540276; active = well fitted inhibition curve with a large enough effect; inconclusive = small, poorly fitted or top-dose-only effect, or effect the other way; inactive = flat fitted curve, though single readings scatter; tested in HEK293 cells; about a fifth of its hits are not listed in these tables; also: % is scaled to controls: 0 for no effect and ±100 for the full control effect; luciferase read-out
RE007 growth inh: less growth of the S. pombe RE007 Vpr strain; Potency, µM (doses to about 92.2 µM), for the others: at the highest dose activity change, negative = less growth; S. pombe RE007 Vpr strain, BacTiter-Glo ATP luminescence, 24 h; control for the full effect not named in the record; 360,000 compounds, 0.21% hits; active = well fitted falling curve with a large enough effect; inconclusive = small, poorly fitted or top-dose-only effect; inactive = no such curve, though single readings can be large or run the other way;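 also: % is scaled to controls: 0 for no effect and ±100 for the full control effect; nearly all actives have a fitted effect of over 50% in size; the assay follows cell death caused by Vpr and the record does not say whether a fall means rescue or toxicity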
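Fission yeast strain RE007, carrying one chromosomally integrated HIV-1 vpr copy, was seeded at OD 0.01 in PMG+AL medium with 23 nL pinned compound. After 24 h at 30 °C and 99% humidity, viability was read by BacTiter-Glo luminescence.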
SARS PLP yeast: inhibitors of SARS-CoV papain-like protease in yeast | Potency, µM (titrated, usually from 32.9 µM), without a hit: at the top dose activity, positive = growth rescue | 330,000 compounds, 0.19% hits | AID 485353 | S. cerevisiae expressing SARS-CoV PLpro, growth rescue; control for the full effect not named in the record; active means well fitted rising curve with a large enough effect; inconclusive means small, poorly fitted or top-dose-only effect; inactive means no such curve, though single readings can be large or run the other way; also: 0% is about no effect; nearly all actives have a fitted effect of over 55% in size; growth read by luminescence after 48 h
LASV entry inh: Lassa virus entry inhibition; 300,000 compounds, 1.2% hits; Potency, µM (highest dose often 37.9 µM), inactives show at the highest dose activity change, negative = inhibition, actives largely listed as inhibitors; Lassa virus pseudotype entry inhibition, cell reporter; control for the full effect not named in the record; active means well fitted inhibition curve with a large enough effect; inconclusive means small, poorly fitted or top-dose-only effect, or effect the other way; inactive means flat fitted curve, though single readings scatter; tested in HEK293 cells; also: % is scaled to controls: 0 for no effect and ±100 for the full control effect; nearly all actives have a fitted effect of over 50% in size; luciferase read-out
Cruzain inh Det: blocks cruzain activity in presence of Triton detergent; 200,000 compounds, 0.43% hits; Potency, µM, for the others: max response, negative = inhibition, most hits filed as inhibitors; purified cruzain, Z-FR-AMC fluorescence, 0.01% Triton; AID 1478; P25779;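 also: plate controls were neutral wells for no effect and buffer without enzyme for full effect; nearly all actives have a fitted effect of over 40% in size; top concentration of the series not given in the record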
Target sequence (P25779 123-467 limits assumed): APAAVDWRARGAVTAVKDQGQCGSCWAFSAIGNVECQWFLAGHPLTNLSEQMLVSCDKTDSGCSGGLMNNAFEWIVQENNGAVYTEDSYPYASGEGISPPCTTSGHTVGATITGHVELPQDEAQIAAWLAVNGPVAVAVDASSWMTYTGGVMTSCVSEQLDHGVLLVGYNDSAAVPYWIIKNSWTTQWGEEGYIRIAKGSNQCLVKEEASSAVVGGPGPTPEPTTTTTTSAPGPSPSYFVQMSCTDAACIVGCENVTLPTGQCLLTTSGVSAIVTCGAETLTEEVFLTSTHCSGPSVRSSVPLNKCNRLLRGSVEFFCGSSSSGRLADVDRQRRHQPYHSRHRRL
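15 min RT preincubation of 1.5 nM cruzain with compound, then 2 uM Z-FR-AMC added; kinetic AMC fluorescence, 60 s delta. Triton X-100 0.01%, pH 5.5.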
Cruzain noTriton: inhibitors of Trypanosoma cruzi cruzain without detergent | P25779 | purified cruzain, Z-FR-AMC fluorescence, no detergent | Potency, µM, inactives show max response, negative = inhibition, hits mostly inhibitors | 200,000 compounds, 2.3% hits | AID 1476;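 also: plate controls were enzyme without inhibitor for no effect and buffer without enzyme for full effect; nearly all actives have a fitted effect of over 40% in size; top concentration of the series not given in the record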
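Detergent-free condition (0.00005% Triton X-100) in acetate buffer pH 5.5 with DTT. 1.5 nM enzyme and compound were pre-mixed 15 min, then 2 uM Z-FR-AMC substrate added; reaction progress from fluorescence change between first and third reads (60 s).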
* marks the source's active call; other numbers are inactive results; ? = inconclusive; nt = not tested or not shown; & = joins results of further samples; [ ] = remark or other dose. Unless noted, calls follow the shape of the dose curve; as a rule, active = well fitted curve in the direction sought with a large enough effect; inconclusive = small, poorly fitted or top-dose-only effect, or another doubt; inactive = no such curve, though single readings can be large; an effect the other way counts as inactive or inconclusive. Potency is read from the fitted curve at half-maximal effect.

no.	Molecule	2A StopGo	LASV entry inh	NS1 inh	Marburg entry inh	Cruzain inh Det	SARS PLP yeast	Cruzain noTriton	RE007 growth inh
1	O=C(COC(=O)Cc1ccccc1)NC12CC3CC(CC(C3)C1)C2	8%	14%	-24%	7%	7.7%	1%	-1%	6%
2	O=C(CCN1C(=O)/C(=C/c2ccco2)SC1=S)Nc1ccc(C(=O)O)c(O)c1	15%	20%[46.1 µM]	4%	-10%[46.1 µM]	nt	0%	nt	1%
3	CCCC(=O)c1ccc(N2CCCC2)c(F)c1	52%[activator]	?	2%	5%	-9.3%	-13%	-19%	-17%
4	CCOC(=O)c1cnc2cc(C)nn2c1C	-15%	1%	1%	5%	2.8%	8%	-8%	-18%
5	COCCNC(=O)CN(C(=O)c1ccc(N2CCCC2)nc1)c1ccccc1	9%	14%[46.1 µM]	nt	?	nt	7%	nt	0%
6	COc1cc(C2C(C(=O)Nc3ccc(C)cc3C)=C(C)Nc3nc4ccccc4n32)cc(OC)c1OC (stereo not drawn)	-25%	1%[46.1 µM]	nt	-1%[46.1 µM]	-5.4%	nt	-6%	nt
7	CCCCC(CC)COC(=O)C(C#N)=C(c1ccccc1)c1ccccc1 (stereo not drawn)	?	nt	nt	nt	0.2%&-3.3%	-1%	?	-5%
8	CC(=O)c1cccc(NC(=S)NC(=O)c2ccccc2C)c1	50%[activator]	9%	2%	0%	nt	0%	nt	12%
9	O=S(=O)(Nc1ccc(-c2nc3cccnc3s2)cc1)c1ccc(Cl)s1	46%[activator]	nt	9%	nt	-12%	-11%	?	-6%
10	NC(=O)C1(N2CCCCC2)CCN(C(=O)CCCn2c(=O)[nH]c3ccsc3c2=O)CC1	-2%	nt	1%	nt	3.1%	1%	2%	-10%
11	Cc1ccccc1CN1CCc2c(OCC(=O)N3CCCCC3)cccc2C1=O	?	?	-8%	?	nt	0%	nt	11%
12	COc1ccc2c(C(=O)CN(C)C3CCCCC3)c[nH]c2c1	-12%	14%	3%	-10%	-0.9%	-1%	-18%	-2%
13	Cc1cccc(C(=O)Nc2nc3nc(-c4ccccc4)cc(=O)n3[nH]2)c1	-7%	1%[46.1 µM]	nt	23%[46.1 µM]	-3.6%	nt	1%	nt
14	CCc1[nH]nc(C(=O)N2CCCC(C(=O)c3cccc(C(F)(F)F)c3)C2)c1C (stereo not drawn)	?	nt	-15%	nt	nt	1%	nt	-1%
15	C=CCN(c1ccccc1C(=O)NCC(=O)O)S(=O)(=O)c1ccccc1C	4%	-1%	6%	5%	nt	-3%	nt	12%
16	Cn1cc(S(=O)(=O)N2CCNCC2)cc1C(N)=O	-3%	16%	nt	-7%	nt	2%	nt	-5%
17	Cc1nc(CC(=O)c2ccc(O)cc2O)cs1	43%[activator]	?	-1%	19%	0.8%	10%	-4%	-2%
18	COc1cc(/C=C(\C#N)c2nc3ccccc3[nH]2)cc(Br)c1OCc1ccc(F)cc1	?	?	17%	-23%&-1%	-3.9%	-3%	25µM*	29%
19	O=C(COc1ccc2c(c1)oc(=O)c1ccccc12)NCC1CCC(C(=O)O)CC1 (stereo not drawn)	-15%	nt	8%	nt	nt	3%	nt	0%
20	CCOc1ccccc1NC(=O)CCCNC(=O)c1ccc(Cl)cc1	-7%	nt	-5%	2%[46.1 µM]	nt	-3%	nt	-8%
21	Cc1ccc2nc(NCc3ccccc3)[nH]c2c1	29%	?	-6%	?	-6.4%	-5%	-8%	-2%
22	COC(=O)c1ccccc1NC(=O)c1c(C)oc2ncn(C)c(=O)c12	12%	20%[46.1 µM]	nt	7%[46.1 µM]	0.0%	nt	-4%	nt
23	N#CC1=C(N)NC(SCC(=O)Nc2ccccc2)=C(C#N)C12CCCC2	0%	9%	-5%	-21%	-7.4%	-1%	-12%	1%
24	O=C(Nc1cccc2c1N(C(=O)c1ccco1)CCC2)c1ccco1	8%	nt	-2%	nt	nt	-1%	nt	2%
25	CC(C)C(NC(=O)c1c(F)cccc1F)C(=O)OCN1C(=O)c2ccccc2C1=O (stereo not drawn)	16%	-2%	nt	?	nt	-2%	nt	-23%
26	CCc1ccccc1NC(=O)COc1ccc2c(=O)c(Oc3cc(C)ccc3C)coc2c1	-19%	5%	-4%	2%	-4.8%	-6%	?	-6%
27	Cc1cccc(C(=O)N2c3ccccc3C(=O)OC2c2ccc3c(c2)OCO3)c1 (stereo not drawn)	5%	0%	-41%	22%	0.2%	-2%	?	-27%
28	Cc1sc2ncn(CC(=O)Nc3ccc(F)cc3F)c(=O)c2c1S(=O)(=O)N1CCC(C)CC1	-10%	18%[46.1 µM]	nt	1%[46.1 µM]	0.2%	nt	9%	nt
29	O=C(CN(Cc1ccccc1Cl)C(=O)c1ccc(CN2CCOCC2)o1)NCc1ccccc1	-16%	-7%	-7%	3%&11%	1.3%	-1%	?	3%
30	CCNC(=O)NC(=O)C(C)OC(=O)C1CCN(S(=O)(=O)c2ccccc2C(=O)OC)CC1 (stereo not drawn)	7%	nt	-6%	nt	nt	-3%	nt	-20%
31	O=C(Nc1cc(Cl)cc(Cl)c1)c1cccc(OC(F)F)c1	40µM*	-14%	-146%	-12%	-7.8%	-46%	-4%	-6%
32	CC(C1CC1)N(C(=O)c1ccccc1[N+](=O)[O-])c1ccccc1 (stereo not drawn)	-18%	2%[46.1 µM]	nt	-21%[46.1 µM]	nt	-2%	nt	8%
33	COc1ccccc1CNS(=O)(=O)c1ccc2c(c1)NC(=O)C(C)S2 (stereo not drawn)	-13%	-44%[46.1 µM]	3%	-25%[46.1 µM]	nt	-2%	nt	-10%
34	Cn1cccc1C(=O)OCC(=O)Nc1ccc2c(c1)OCCO2	-28%	7.1µM*	nt	6.3µM*	nt	-20%	nt	-8%
35	O=Cc1ccc(-n2nncc2-c2ccc([N+](=O)[O-])cc2)cc1	-4%	6%	3%	-3%[46.1 µM]	nt	0%	nt	-5%
36	O=C(COC(=O)c1nc(Cl)ccc1Cl)NCc1ccc(Cl)cc1Cl	5%	13%	nt	3%	nt	1%	nt	-7%
37	Cc1cc(C(=O)N2CCCC(N3CCN(c4cccc(Cl)c4)CC3)C2)nn1C (stereo not drawn)	13%	8%	1%	17%	nt	2%	nt	-2%
38	Cn1c(=O)n(CCC(=O)O)c2ccccc21	10%	4%	-2%	12%&12%[46.1 µM]	0.8%	0%	11%	-9%
39	COc1ccc(-c2c(C)nn3c(NC4CCCC4)cc(C)nc23)cc1OC	?	nt	-13%	nt	nt	-4%	nt	-2%
40	Cc1ccc(NC(=O)/C=C/c2ccc(Cl)cc2)nc1	0%	1%	-4%	-26%[46.1 µM]	nt	-1%	nt	-3%
41	O=C(NNC(=O)C1CC1)c1ccc(-c2ccccc2)cc1	nt	3%	-4%	12%	1.5%	5%	-2%	9%
42	Cc1ccnc2nc(C(=O)OCCOc3ccccc3)nn12	-22%	-17%	-7%	-1%[46.1 µM]	6.1%	-4%	3%	-13%
43	O=C(COC(=O)/C=C/c1cccc(Cl)c1)NCCC1=CCCCC1	11%	-23%	-14%	4%	-1.5%	-15%	6%	1%
44	O=C1C(NS(=O)(=O)c2cccs2)=C(N2CCOCC2)C(=O)c2ccccc21	?	?	-1%	-1%[46.1 µM]	nt	7%	nt	-4%
45	CCCNC(=O)c1ccc2c(c1)sc1nc(-c3ccc(C)cc3)cn12	-3%	-9%[46.1 µM]	nt	nt	-4.7%	nt	1%	nt
46	CCOc1ccc(NC(=O)CN(C)C(=O)c2ccccc2CCc2ccccc2)cc1OCC	-23%	-5%	nt	-26%[46.1 µM]	nt	-2%	nt	2%
47	CCc1ccc(C2=NN(CCC(=O)NC(C)c3ccc4c(c3)OCCO4)C(=O)CC2)cc1 (stereo not drawn)	-10%	-18%	nt	-8%[46.1 µM]	nt	4%	nt	9%
48	CC(NC(=O)C[n+]1cccc(Br)c1)c1ccccc1 (stereo not drawn)	-22%	nt	4%	nt	nt	0%	nt	14%
49	COC(=O)C1C(=O)C(C(=O)c2ccccc2)C(=O)CC1(C)C (stereo not drawn)	-7%	nt	3%	nt	nt	5%	nt	-2%
50	O=C(O)CC1=C(Nc2ccccc2)C(=O)N(c2ccccc2)C1c1ccc(Cl)cc1 (stereo not drawn)	52%[activator]	nt	?	nt	nt	0%	nt	-8%
51	COCCn1nnnc1C(C(C)C)N1CCN(C(=O)c2ccco2)CC1 (stereo not drawn)	-1%	4%	6%	?	3.4%	2%	-3%	-2%
52	COc1ccc(CC(=O)Nc2ccc(-c3noc(-c4cc(OC)c(OC)c(OC)c4)n3)cc2)cc1	-29%	-23%	-1%	-36%	-2.1%	-7%	5%	16%
53	COc1ccc2cnn(CCOc3ccccc3)c(=O)c2c1OC	-36%	?	-64%	?	-2.2%	5%	15%	-1%
54	COC(=O)c1ccc(NC(=S)Nc2ccccn2)cc1	31%[activator]	?	11%	-15%	-1.0%	?	-11%	-1%
55	Cc1ccc(-c2nnc(Nc3cccc(O)c3)c3ccccc23)cc1S(=O)(=O)N1CCCCC1	-22%	?	nt	nt	-3.7%	nt	-7%	nt
56	CCn1nnc2cc(C(=O)Nc3cccc(C)c3C)ccc21	15%	-16%[46.1 µM]	nt	nt	2.8%	nt	-13%	nt
57	C=CCNC(=O)NC(=O)COC(=O)COc1ccc(Br)cc1F	1%	10%	-1%	1%	-3.0%	-2%	6%	-3%
58	Cc1nnc(SCCN2CCOCC2)n1C	2%	7%	-3%	?	3.0%	7%	6%	21%
59	Cc1oc2ccc(O)c(CN3CCN(C)CC3)c2c1C(=O)Nc1ccccc1	-22%	20%[46.1 µM]	nt	1%[46.1 µM]	-2.9%	nt	-16%	nt
60	O=S(=O)(c1ccccc1Cl)N1CCC(O)(c2ccc3c(c2)OCO3)CC1	nt	19%	-37%	18%	-4.0%	14%	-3%	8%
